Screening data (PubChem BioAssay)
MT1-MMP act inh: inhibitors of human MT1-MMP activation | hit rate 0.061% among 360,000 | P50281 | GFP/RFP ratio change, % at 20 µM | AID 651647 | HT1080 RFP-PRO-GFP cells, GFP/RFP ratio fluorescence, overnight; percent of plate control window, DMSO zero;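 active means GFP/RFP ratio change of at least 30% with cell ATP level not reduced by more than half and red fluorescence within 50% of control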; further: strong numbers were not always called active
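Assay system: HT1080 cells carrying an RFP-PRO-GFP reporter | Dosing: Single dose of 20 µM compound, 1% DMSO final | Incubation: Cells overnight before dosing, compound overnight, 37 °C, 5% CO2 | Evaluation: GFP/RFP fluorescence ratio | Control set: DMSO and RFP-L50D-GFP cell wells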
PABP FP inh: PABP-poly(A) binding inhibition | PABP-poly(A) RNA binding, fluorescence polarization | hit rate 1% among 290,000 | P11940 | AID 2014 | inhibition, % at 35 µM;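 active means 50% or more with normal probe brightness, or confirmed in later tests; inconclusive means above 50% with abnormal brightness, or retests that disagree; inactive means below 50% or failed in later tests; about a fifth of its hits are not listed in these tables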;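 further: calls also rest on retests at 20 µM and on dose response follow-up; controls were probe without protein and protein plus probe with vehicle; some compounds called inactive have numbers as strong as hits; many hits fall short of the cut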
Target sequence (P11940 whole entry, looked up): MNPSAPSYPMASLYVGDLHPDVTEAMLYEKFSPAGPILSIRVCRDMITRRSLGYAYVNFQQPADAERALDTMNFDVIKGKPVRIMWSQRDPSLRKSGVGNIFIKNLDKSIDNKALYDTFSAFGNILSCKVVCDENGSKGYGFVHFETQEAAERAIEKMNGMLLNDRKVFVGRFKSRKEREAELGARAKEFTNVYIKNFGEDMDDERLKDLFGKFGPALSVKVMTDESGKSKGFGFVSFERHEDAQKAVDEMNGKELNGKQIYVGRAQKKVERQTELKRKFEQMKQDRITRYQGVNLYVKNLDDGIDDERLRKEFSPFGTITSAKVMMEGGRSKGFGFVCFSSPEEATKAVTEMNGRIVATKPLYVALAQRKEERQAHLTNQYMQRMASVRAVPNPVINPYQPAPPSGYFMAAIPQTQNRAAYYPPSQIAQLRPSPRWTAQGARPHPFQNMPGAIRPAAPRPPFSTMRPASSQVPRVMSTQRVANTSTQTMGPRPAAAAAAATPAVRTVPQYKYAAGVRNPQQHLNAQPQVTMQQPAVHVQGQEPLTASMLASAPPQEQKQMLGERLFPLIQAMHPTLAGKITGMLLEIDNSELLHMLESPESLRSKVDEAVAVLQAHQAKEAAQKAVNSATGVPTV
CSC inhib: cancer stem cell inhibition; cancer stem cell-like cells viability, luminescence; inhibition, % at 7.5 µM; hit rate 1.1% among 300,000; AID 2717;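 active means mean at 75% or more and at least half the replicates too; inconclusive means mean and replicates disagree; tested in HMLE shEcad cells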;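 further: 0% = median of negative and 100% = median of positive control wells; the first replicate is given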
HIV Env fusion: inhibitors of HIV Env-mediated cell fusion; HeLa-JRFL Env/CEM21 cell fusion, luciferase; inhibition, % at 12.3 µM; hit rate 1.1% among 360,000;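 active means mean replicate inhibition score of at least 50 and every replicate individually at or above 50; inconclusive means only one of the two criteria met; inactive means mean below 50 and not all replicates reaching 50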;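 further: 0% = plate neutral controls and 100% = maraviroc near 300 nM; one replicate is shown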
eIF4H FP inh: inhibitors of RNA binding by human eIF4H; Q15056; hit rate 0.94% among 290,000; eIF4H fluorescence polarization binding assay; inhibition, % at 35 µM;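 active means 50% or more with normal probe brightness, or confirmed in later tests; inconclusive means above 50% with abnormal brightness, or retests that disagree; inactive means below 50% or failed in later tests; about a fifth of its hits are not listed in these tables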;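 further: calls also rest on retests at 20 µM and on dose response follow-up; 0% = protein and probe with vehicle and 100% = probe without protein; strong numbers were not always called active; many hits fall short of the cut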
UUG fidelity: modulators of start codon recognition fidelity in yeast; S. cerevisiae UUG-firefly luciferase reporter, luminescence/redox ratio; activity score, % at 18.7 µM; hit rate 0.13% among 350,000; AID 602363;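 active means replicate mean at a twofold rise or more, about +100% in these data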;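 further: firefly luciferase made from a UUG start codon reports start codon fidelity; reporter light over untreated wells divided by growth signal over untreated wells; some hits fall short of that in this replicate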
Rce1 inh: blocks yeast Ras-converting enzyme. Q03530. yeast membranes, quenched prenylated peptide cleavage fluorescence. AID 2563. hit rate 0.27% among 290,000. calls only;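 active means fall in fluorescence gain of 50% or more versus controls, with final raw signal at or below 3038400; inconclusive means same 50% fall but final raw signal above 3038400; inactive means fall in fluorescence gain under 50%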;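 further: plate controls were neutral control wells for no effect and wells lacking membranes for full effect; tested at 10 µM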
Target sequence (Q03530 whole entry, looked up): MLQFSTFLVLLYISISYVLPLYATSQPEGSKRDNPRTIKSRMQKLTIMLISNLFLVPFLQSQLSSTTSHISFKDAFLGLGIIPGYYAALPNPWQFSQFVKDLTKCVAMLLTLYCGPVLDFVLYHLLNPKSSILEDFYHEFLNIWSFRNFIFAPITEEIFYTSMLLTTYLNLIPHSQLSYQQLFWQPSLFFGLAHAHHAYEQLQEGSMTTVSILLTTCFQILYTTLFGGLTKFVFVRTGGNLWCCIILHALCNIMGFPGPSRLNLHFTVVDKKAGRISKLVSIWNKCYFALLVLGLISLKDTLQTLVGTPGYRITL
eIF4H FP inh retest: recorded beside eIF4H FP inh, whose call it bears; inhibition, %; compound at 20 µM; confirmation average;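 mean of two retest wells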
PABP FP inh retest: recorded beside PABP FP inh, whose call it bears; inhibition, %; compound at 20 µM; confirmation repeats;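 mean of two retest wells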
MT1-MMP act inh RFP: second read-out of MT1-MMP act inh, no call of its own (marks repeat the call); RFP signal change, %; measured here: RFP expression control read;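 0 = vehicle wells; hits needed this value within 50% of zero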
* = called active by the depositor; i = inactive; ? = inconclusive; · = not tested or not shown. Not all compounds are listed; rates above refer to the full screens.

A first look:
SMILES	MT1-MMP act inh	MT1-MMP act inh RFP	PABP FP inh	CSC inhib	HIV Env fusion	eIF4H FP inh	UUG fidelity	Rce1 inh	others
CC1CCN(CC(=O)n2c3c(c4ccccc42)CCCC3)CC1	2	1	-1	·	21	-9	-32	i
O=C1NCN(C2CCCCC2)CN1	-1	-3	·	·	10	·	-22	·
CCN(CC(=O)NC1CCS(=O)(=O)C1)S(=O)(=O)c1cccc(C(C)=O)c1 (stereo not given)	5	4	12	-2	-2	12	·	i
NC(=O)CC(NC(=O)c1cccc(Br)c1)c1ccc(NCCN2CCOCC2)c([N+](=O)[O-])c1 (stereo not given)	·	·	-2	·	23	-4	·	i
CC(C)Cc1ccc(CN2CCCC(NC(=O)CCN3CCCCC3=O)C2)cc1 (stereo not given)	7	6	-8	5	9	-4	-11	i

The list itself (from the top)
SMILES	MT1-MMP act inh	MT1-MMP act inh RFP	PABP FP inh	CSC inhib	HIV Env fusion	eIF4H FP inh	UUG fidelity	Rce1 inh	others
CC1CCN(CC(=O)n2c3c(c4ccccc42)CCCC3)CC1	2	1	-1	·	21	-9	-32	i
O=C1NCN(C2CCCCC2)CN1	-1	-3	·	·	10	·	-22	·
CCN(CC(=O)NC1CCS(=O)(=O)C1)S(=O)(=O)c1cccc(C(C)=O)c1 (stereo not given)	5	4	12	-2	-2	12	·	i
NC(=O)CC(NC(=O)c1cccc(Br)c1)c1ccc(NCCN2CCOCC2)c([N+](=O)[O-])c1 (stereo not given)	·	·	-2	·	23	-4	·	i
CC(C)Cc1ccc(CN2CCCC(NC(=O)CCN3CCCCC3=O)C2)cc1 (stereo not given)	7	6	-8	5	9	-4	-11	i
Cc1cc(N2CCN(C)CC2)nc2ccc(NC(=S)N3CCN(c4ccc(F)cc4)CC3)cc12	2	1	2	?	22	12	-23	i
COc1cccc(-c2nc(-c3ccc(C(=O)O)cc3)no2)c1	6	6	·	5	-175	·	-71	i
O=C1CC(NCC2CCCO2)C(=O)N1c1ccc(Cl)cc1 (stereo not given)	0	7	-60	-9	-5	0	·	i
N#Cc1ccc(C(=O)N2CCN(c3ncccn3)CC2)cc1	-1	-2	8	-10	15	-11	-10	i
COC(=O)c1noc(-c2ccc(OC)cc2)n1	2	5	5	13	·	-9	-26	i
Cc1cc2occ(CC(=O)NNC(=O)c3ccccc3F)c2cc1C	-5	2	-2	-10	4	-3	-4	i
Cc1ccnc(NS(=O)(=O)c2ccc(NC(=O)C3CCCNC3=O)cc2)n1 (stereo not given)	3	7	2	-8	-4	-1	10	i
Cc1cccc(NC(=O)CSc2nnc(-c3n[nH]c4ccccc34)o2)c1	0	0	4	3	-7	-8	·	i
O=C(COC(=O)CNC(=O)c1ccco1)NCCN1C(=O)CSC1=O	-3	-6	6	-7	-28	-5	-9	·
O=C(NC1CCSc2ccccc21)c1cc([N+](=O)[O-])ccc1N1CCOCC1 (stereo not given)	2	-2	·	-9	11	·	11	i
Cc1ccc(S(=O)(=O)Nc2cccc(NC(=O)CN3CCCCC3)c2)cc1	6	-1	-2	2	4	1	-5	i
CC1=CC(C)(C)N(S(=O)(=O)c2ccc(C)cc2)c2ccc(C)cc21	8	-6	9	·	-12	2	1	i
Cc1cc2ccccc2c(=O)n1CC(=O)NC1CCCCCC1	-5	-1	-8	-20	·	-4	18	i
COc1ccc(S(=O)(=O)N2CCN(C(=S)NCCc3ccccc3)CC2)cc1	1	2	5	-9	11	69	-11	i	eIF4H FP inh retest=-9;PABP FP inh retest=11
COc1cc(C)ccc1OCc1cc(C(=O)NCCN2CCCC(O)C2)no1 (stereo not given)	-3	3	-3	-16	10	-2	-11	i
COC(=O)N1C(=O)[C@@](CC(C)C)(c2ccccc2)N1C(=O)OC	·	·	4	38	·	-7	·	i
Cc1cc2c(cc1S(=O)(=O)N1CCN(c3ccccc3F)CC1)OCC(=O)N2	-2	2	-5	1	-15	2	-3	i
CCOC(=O)C1=C(C)N=c2s/c(=C/c3ccc(OCC(=O)O)c(OC)c3)c(=O)n2C1c1ccc(Cl)cc1 (stereo not given)	-34	-7	·	21	-3	·	·	i
COc1cc(C(=O)NCCOc2ccc(F)cc2)c(Br)c(OC)c1OC	2	0	-1	-10	-23	4	·	i
O=C(NCc1ccc(Cl)cc1)c1cc(-c2ccco2)on1	6	3	-15	-5	12	6	-21	i
Next part.
SMILES	MT1-MMP act inh	MT1-MMP act inh RFP	PABP FP inh	CSC inhib	HIV Env fusion	eIF4H FP inh	UUG fidelity	Rce1 inh	others
CC(C)=CCOc1ccc2ccc(=O)oc2c1	3	-2	7	1	·	-2	-10	i
COc1ccccc1C(=O)Nc1ccnn1C1CCN(C(C)CSC)CC1 (stereo not given)	-6	0	25	-1	2	55	-12	i	eIF4H FP inh retest=46;PABP FP inh retest=44
Cc1cccc(NC(=O)c2ccccc2NC(=O)CCC(=O)O)c1	1	3	-4	·	13	-4	·	i
COc1ccc(CNC(=O)c2oc3ccc(S(=O)(=O)N4CCOCC4)cc3c2C)cc1	3	-3	-3	5	16	-6	7	i
Cc1ccccc1OCc1nc2ccccc2[nH]1	2	0	-12	-7	-51	-8	·	i
Cc1ccccc1OCC(O)CN(Cc1ccccc1O)C1CCCCC1 (stereo not given)	1	1	2	7	-14	0	-13	i
CC1(C)CC(C(CC(=O)Nc2nccs2)c2ccccc2)CCO1 (stereo not given)	3	0	5	-6	-4	-7	·	i
O=[N+]([O-])c1ccc2nc(NS(=O)(=O)c3ccc(Cl)cc3)sc2c1	-3	0	14	26	2	-1	-2	i
O=C(CCCc1ccccc1)NCc1ccccc1	·	·	1	-13	-6	-1	·	i
CCOC(=O)c1c(NC(=O)/C=C/c2ccc(C)o2)sc(C)c1C	-2	2	7	3	·	1	-23	i
Cc1cc(=O)oc2c(C)c(OC(C)C(=O)NCC(O)c3ccccc3)ccc12 (stereo not given)	-6	-1	-6	-16	3	4	-9	i
CCOC(=O)COc1cnc2ccccc2n1	2	6	6	-4	28	-8	·	i
O=C(Nc1ccccc1Cl)c1ccc2nccnc2c1	-9	-4	-1	-9	-21	-2	-18	·
CCOC(=O)COc1ccc(/C=C/[N+](=O)[O-])c(OCC(=O)OCC)c1	10	-8	10	6	i	-3	-22	i
O=C(NCc1ccccn1)C1C2C=CC(C2)C1C(=O)Nc1ccc(F)cc1 (stereo not given)	6	5	-9	-15	·	0	-24	i
Cc1cccc(NC(=O)CN(CCc2ccccc2)S(C)(=O)=O)c1	5	-1	6	·	13	-1	0	i
CCCN1C(=O)SC(CC(=O)Nc2ccccc2)C1=O (stereo not given)	4	1	-10	6	-26	-16	-3	i
CC(=O)c1ccc(NC(=O)CSc2nnc(-c3ccco3)c(-c3ccco3)n2)cc1	-7	5	84	-10	-17	100	-5	i	eIF4H FP inh retest=7;PABP FP inh retest=15
CC(C)(CC(=O)N1CCN(c2ccc(Cl)cc2)CC1)CC1=NS(=O)(=O)c2ccccc2N1	3	-17	-1	1	54	5	1	i
Cc1c(NC(=O)C(C)OC(=O)c2ccc([N+](=O)[O-])s2)c(=O)n(-c2ccccc2)n1C (stereo not given)	3	-4	-5	11	23	2	17	i
C=CCn1c(/N=C/c2ccc(N(C)C)cc2)nc2ccccc21	-1	-2	16	-6	3	31	-14	i
O=C(O)c1cccc(NC(=O)C2C3C=CC(C3)C2C(=O)O)c1 (stereo not given)	-2	0	14	-7	·	21	-12	i
O=C(N1CCN(Cc2ccccc2)CC1)C12CC3CC(CC(C3)C1)C2	-1	4	16	-7	·	1	·	i
Cc1nnc(SCc2ccc([N+](=O)[O-])cc2)o1	0	4	8	-14	18	-5	·	i
Cc1nc(CS(=O)(=O)c2ccccc2)cc(Sc2ccc(Cl)cc2)n1	-1	-2	0	0	·	-12	1	i
(cont.)
SMILES	MT1-MMP act inh	MT1-MMP act inh RFP	PABP FP inh	CSC inhib	HIV Env fusion	eIF4H FP inh	UUG fidelity	Rce1 inh	others
Cc1cccc(C)c1NC(=O)C1(C)CCC(=O)N1C1CCN(Cc2ccccc2)CC1 (stereo not given)	-1	3	·	·	5	·	-6	·
Cc1onc(-c2c(Cl)cccc2Cl)c1C(=O)N1CCN(c2ncccn2)CC1	-1	1	-14	-6	3	-4	·	i
CC(C)[C@H](NS(=O)(=O)c1ccccc1)C(=O)OCC(=O)Nc1cccc(S(N)(=O)=O)c1	2	3	·	-23	4	·	-8	·
CCC(=O)NC(=S)Nc1cccc(NC(=O)c2ccc(Cl)cc2Cl)c1	5	0	-5	3	·	0	-15	i
COC(=O)C(c1ccccc1)C(C(=O)OC)c1ccccc1 (stereo not given)	-7	-2	10	-10	3	3	-11	i
CCCCNC(=O)CN1C(=O)CSc2ccc(S(=O)(=O)N3CCOCC3)cc21	3	6	·	·	5	·	0	·
Cc1cc(C)n(-c2ccc(Cl)c(C(=O)Nc3ccc(OC(F)(F)F)cc3)n2)n1	9	4	35	2	14	7	·	i
Cc1ccc(-n2nc(C)c3c2OC(N)=C(C#N)C3c2ccoc2)cc1 (stereo not given)	-2	-3	46	·	13	14	6	i
CS(=O)(=O)N1CCC(C(=O)NCc2ccc(Cl)cc2Cl)CC1	4	2	-4	0	-11	-7	·	i
Cc1ccc(C)c(N(Cc2ccccc2F)S(C)(=O)=O)c1	·	·	4	-1	·	-5	-14	i
Cn1c(SCc2ccc([N+](=O)[O-])cc2)nnc1-c1cccnc1	-1	8	0	18	-7	-11	·	i
CCOCCCNC(=O)C1CCN(S(=O)(=O)N(CC(C)C)CC(C)C)CC1	4	-4	3	-11	·	-7	7	·
CCOC(=O)COc1c(/C=N\OC)cc(Cl)cc1OC	0	3	-5	-7	7	-9	·	i
Cc1ccc(-n2c(C)c(C)c3c(N)ncnc32)cc1	2	3	3	-8	7	-7	·	i
CCN(Cc1nc2ccccc2c(=O)[nH]1)C(=O)c1cc(C2CC2)nn1-c1ccccc1	-5	0	·	-6	-35	·	8	·
Nc1nnc(SCc2ccc(F)cc2)n1-c1ccccc1	1	-8	0	-17	-8	0	-24	i
O=C(c1ccccc1)N1CCN(Cc2ccccc2)CC1	0	3	-3	-6	·	3	-5	i
O=C(C1CCCO1)N(Cc1ccccc1)c1ccccc1 (stereo not given)	1	-2	11	-3	·	2	·	i

6 entries already listed, ordered by molar mass, smallest number first.
SMILES	MT1-MMP act inh	MT1-MMP act inh RFP	PABP FP inh	CSC inhib	HIV Env fusion	eIF4H FP inh	UUG fidelity	Rce1 inh	others
Cc1ccc(-n2c(C)c(C)c3c(N)ncnc32)cc1	2	3	3	-8	7	-7	·	i
COC(=O)C(c1ccccc1)C(C(=O)OC)c1ccccc1 (stereo not given)	-7	-2	10	-10	3	3	-11	i
Cc1ccc(-n2nc(C)c3c2OC(N)=C(C#N)C3c2ccoc2)cc1 (stereo not given)	-2	-3	46	·	13	14	6	i
Cc1onc(-c2c(Cl)cccc2Cl)c1C(=O)N1CCN(c2ncccn2)CC1	-1	1	-14	-6	3	-4	·	i
Cc1cccc(C)c1NC(=O)C1(C)CCC(=O)N1C1CCN(Cc2ccccc2)CC1 (stereo not given)	-1	3	·	·	5	·	-6	·
CC(C)[C@H](NS(=O)(=O)c1ccccc1)C(=O)OCC(=O)Nc1cccc(S(N)(=O)=O)c1	2	3	·	-23	4	·	-8	·
